Rango release inh – qHTS Assay for Inhibitors of RanGTP induced Rango (Ran-regulated importin-beta cargo) - Importin beta complex dissociation. Snurportin-1 (Homo sapiens) + GTP-binding nuclear protein Ran (Homo sapiens) + Importin …. Biochemical FRET Rango-importin beta, RanGTP-induced dissociation. Potency, µM (top dose mostly 46.1 µM), without a hit: at the highest dose activity change, negative = inhibition. 0.071% of 340,000 active. AID 540253, 2011; active means falling FRET ratio curve, often poorly fitted, with flat reads before Ran was added; inconclusive means other falling curves, or compound fluorescence or quenching; inactive means flat or rising ratio curve;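 note: potency is the fitted concentration of half-maximal effect; % of control where 0% means no effect; nearly all actives have a fitted effect of over 45% in size; -100% = wells without RanGTP and RCC1; the record marks most hits as doubtful in a second field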
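Compounds preincubate 5 min with complex of recombinant Rango and importin beta in PBS with 1 mM DTT. Ran (0.6 uM) loaded with 2 mM GTP plus 0.2 uM RCC1 starts dissociation; FRET is recorded 45 min later.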
Rango-impB inh – qHTS Assay for Inhibitors of Rango (Ran-regulated importin-beta cargo) - Importin beta complex formation | Importin subunit beta-1 (Homo sapiens), Q14974 | Rango CFP/YFP FRET sensor + importin beta, 45 min | Potency, µM (highest dose often 92.2 µM), inactives show at the highest dose inhibition of complex formation | 0.031% of 340,000 active | AID 540263, 2011; active = rising FRET ratio curve, often small or poorly fitted; inconclusive = mostly compound fluorescence or quenching in the first reads; inactive = flat curves in all reads;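 note: potency is the fitted concentration of half-maximal effect; 0% = DMSO wells and 100% = buffer wells lacking importin beta; nearly all actives have a fitted effect of over 15% in size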
Target sequence (Q14974 whole entry, looked up): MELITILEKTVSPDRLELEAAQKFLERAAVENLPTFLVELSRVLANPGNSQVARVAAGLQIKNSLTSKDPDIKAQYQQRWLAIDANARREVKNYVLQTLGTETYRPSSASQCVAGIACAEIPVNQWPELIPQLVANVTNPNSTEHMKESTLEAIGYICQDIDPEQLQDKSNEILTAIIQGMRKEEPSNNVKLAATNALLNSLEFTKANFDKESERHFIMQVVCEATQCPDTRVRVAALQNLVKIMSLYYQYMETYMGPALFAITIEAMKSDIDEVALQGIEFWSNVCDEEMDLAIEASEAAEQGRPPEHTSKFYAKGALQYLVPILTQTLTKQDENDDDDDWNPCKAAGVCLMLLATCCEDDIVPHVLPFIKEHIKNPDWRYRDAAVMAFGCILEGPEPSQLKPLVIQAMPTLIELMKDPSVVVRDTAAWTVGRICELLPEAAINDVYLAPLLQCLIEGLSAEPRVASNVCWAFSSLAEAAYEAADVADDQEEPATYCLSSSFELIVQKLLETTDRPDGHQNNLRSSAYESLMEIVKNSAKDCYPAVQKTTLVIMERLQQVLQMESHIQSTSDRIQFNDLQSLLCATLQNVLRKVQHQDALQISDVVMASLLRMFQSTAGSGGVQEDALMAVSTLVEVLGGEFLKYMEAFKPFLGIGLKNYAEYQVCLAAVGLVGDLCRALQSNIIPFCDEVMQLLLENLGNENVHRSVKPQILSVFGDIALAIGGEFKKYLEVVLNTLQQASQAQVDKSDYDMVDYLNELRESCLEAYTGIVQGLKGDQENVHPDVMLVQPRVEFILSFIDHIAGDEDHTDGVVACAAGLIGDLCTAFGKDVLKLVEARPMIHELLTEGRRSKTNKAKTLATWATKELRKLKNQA
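Inhibition scored from the CFP 486 nm/YFP 530 nm FRET ratio 45 min after adding 0.125 microM importin beta to 50 nM Rango biosensor preincubated 5 min with compound (room temperature, PBS with DTT, Tween-20, BSA). No-importin wells as positive control.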
GLA inh pH 4.5 – qHTS Assay for Inhibitors of Human alpha-Galactosidase at pH 4.5 | purified enzyme, 4-MU-alpha-Gal fluorescence, pH 4.5 | activity change, negative = inhibition, % at 105 µM | 230,000 tested, under 10 active; inconclusive = small, poorly fitted or top-dose-only inhibition, or a rising curve; inactive = flat fitted curve, though single readings scatter; no compound was filed as active;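 note: 0% = full activity with enzyme and -100% = basal without enzyme; dose as in the result columns while the protocol names 77 µM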
miR-21 reporter – qHTS Assay for Modulators of miRNAs and/orActivators of miR-21 | HeLa miR-21 FLuc reporter, luciferase, 48 h | Potency, µM (top dose mostly 38.3 µM), inactives show at the highest dose reporter change, positive = more light | 340,000 tested, under 10 active; active = well fitted rising curve with a large enough effect; inconclusive = small, poorly fitted or top-dose-only effect; inactive = no such curve, though single readings can be large or run the other way;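 note: % of control where 0% means no effect; miR-21 action dims this reporter so a rising signal means less miR-21 action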
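HeLa miR-21-FLuc reporter line, endogenous miR-21; 2000 cells/well in DMEM/10% FBS; compound titration up to ~40uM final, 48 h, 37 degree Celsius; luciferase detection reagent, 15 min lysis, CCD luminescence.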
Starred values were filed as active, the others as inactive; u = inconclusive; x = no result given; & = joins results of further samples. The list is partial (hit frequency here may not be typical).

Below each SMILES – Rango release inh	Rango-impB inh	GLA inh pH 4.5	miR-21 reporter
1: CN1c2ccsc2/C(=N/NC(=O)c2c(F)cccc2F)CS1(=O)=O
→ -5%	0.3%	0	-2%
2: Cc1cccc(C(=O)NCc2nnc3c4ccccc4c(-c4ccccc4)nn23)c1
→ 0%	-1.7%	4	-9%
3: Cc1scc(C(=O)NNC(=S)NCC(C)C)c1C
→ 7%	-3.7%	1	-38%
4: CC(C)(C)c1ccc(OC(=O)N2CCOCC2)cc1
→ u	0.2%	x	-42%
5: CC(CC(=O)NCc1ccco1)S(=O)(=O)c1ccc2c(c1)CCN2C(=O)C1CC1 (stereo unspecified)
→ -4%	-0.1%	x	18%
6: CCOC(=O)c1ccc(NC(=O)[C@@H](NC(N)=O)C(C)C)cc1
→ 29%	5.2%	3	-2%
7: O=C(COC(=O)c1ccc2ncsc2c1)Nc1ccc(OC(F)(F)F)cc1
→ -9%	u	x	x
8: COc1ccc(S(=O)(=O)NCCC(C)C)cc1C
→ 2%	-1.0%	0	-8%
9: O=C(COC(=O)c1ccccc1C(=O)c1ccccc1)c1ccco1
→ -6%	u	-1	-2%
10: Cc1cc2oc(C(=O)N(Cc3ccc(N(C)C)cc3)CC3CCCO3)c(C)c2cc1C (stereo unspecified)
→ -15%	0.0%	x	9%&26%
11: CCOC(=O)N1CCN(CC(=O)Nc2ccccc2C(=O)Nc2ccccc2)CC1
→ 13%	4.5%	x	x
12: CC(=O)c1cccc(-n2nnnc2SCC(=O)Nc2cc(C)on2)c1
→ 4%	-0.7%	x	-4%
13: O=C(CN(Cc1ccc(F)cc1)C(=O)C1CSC(=O)C1)NC1CCCCC1 (stereo unspecified)
→ 1%	0.0%	3	2%
14: CCOc1cc(/C=C2\SC(N3CCCC(C)C3)=NC2=O)ccc1O (stereo unspecified)
→ u	u	x	-53%
15: CCOC(=O)N1CCN(C(=O)Nc2ccc(Cl)cc2Cl)CC1
→ -8%	2.1%	-7	-11%
16: CC(=O)NC1C(=O)N=C(SC(C)C(=O)Nc2cccc(Cl)c2)NC1=O (stereo unspecified)
→ -1%	1.2%	5	0%
17: c1ccc2oc(-c3csc(N4CCOCC4)n3)cc2c1
→ -17%	-2.6%	-3	-20%
18: CN1CCN(S(=O)(=O)c2cccc(C(=O)NC3CCCC3)c2)CC1
→ 0%	2.5%	x	x
19: CCCCCCN(CCCCCC)C(=O)Cc1c(-c2ccc(F)cc2)[nH]c2ccccc12
→ -1%	6.9%	-2&0	x
20: O=C(Nc1ccccc1)c1cc(N2CCOCC2)nc2ccccc12
→ -11%	-2.2%	2	-2%
21: Cc1cc(Cl)ccc1OC(C)C(=O)NCCCn1ccnc1 (stereo unspecified)
→ 4%	-1.3%	12	0%
22: COc1ccc(N2CCN(C(=O)c3ccc(NS(=O)(=O)c4ccc(F)cc4)cc3)CC2)cc1
→ 1%	1.7%	4	-22%
23: CCOC(=O)c1[nH]c2ccccc2c1NC(=O)CC(C)(C)C
→ 7%	-3.0%	-10	-3%
24: OCCCNC(c1ccccc1)c1ccc(O)cc1 (stereo unspecified)
→ 4%	-0.6%	-6	-2%
25: COc1ccc(C(=O)OCC(=O)NCc2ccco2)cc1OC
→ -13%	0.0%	6	-2%
26: COc1cccc(NC(=O)CSc2nccn(-c3ccc4c(c3)OCCO4)c2=O)c1
→ 3%	0.4%	x	x
27: CCOC(=O)c1cnc2ccc(OCC)cc2c1NCCCN1CCOCC1
→ 5%	2.0%	x	5%
28: CN=C1SC(C(=O)Nc2ccccc2Cl)CC(=O)N1c1ccc(OC(F)(F)Cl)cc1 (stereo unspecified)
→ -2%	-3.6%	-19	0%
29: CC(=O)N/N=C/c1ccc(OCCOc2ccc(Br)cc2)cc1
→ 2%	-3.3%	-3	-2%
30: CC(C)C[C@H]1CN=C(Nc2ccccc2)N1CC1CCC(C)CC1 (stereo partly specified)
→ -1%	5.7%	x	18%
31: Cc1cccn2cc(CNS(=O)(=O)c3cccc(F)c3)nc12
→ 1%	13%	5	-1%
32: Cc1nc2ccccc2nc1SCC(=O)c1ccccc1
→ -11%	-4.9%	-4	0%
33: COc1cc2c(cc1OC)C(COc1ccccc1OC)N(C(=O)C(C)(C)C)CC2 (stereo unspecified)
→ -4%	10%	x	-1%
34: O=C(NCc1ccc(F)cc1)N1CCc2ccccc2C1
→ 17%	-3.8%	x	-27%
35: O=C(Nc1ccc(Cl)c(Cl)c1)N(CCCN1CCOCC1)Cc1cccs1
→ -10%	1.4%	-2	8%
36: O=C(CN1C(=O)c2ccccc2S1(=O)=O)Nc1cc(S(=O)(=O)N2CCCCC2)ccc1Cl
→ -5%	-5.9%	x	x
37: COc1ccc(CN(C)CC(=O)NC(=O)NC2CCCCC2)cc1
→ 8%	2.7%	x	x
38: CN(C)S(=O)(=O)n1cnc(-c2ccccc2)c1-c1ccccc1
→ 2%	-1.6%	2	-7%
39: N#CCSc1ncnc2sc3c(c12)CCC3
→ -19%	u	2	-15%
40: Cc1ccc(N=C2NC(=O)/C(=C\c3ccsc3)S2)c(C)c1
→ 6%	-3.6%	8	-12%
41: CC1(C)CC2CC(C)(CN2C(=O)COC(=O)c2n[nH]c(=O)c3ccccc23)C1 (stereo unspecified)
→ 4%	0.1%	-4	-2%
42: Cc1ccccc1Nc1cccc2nonc12
→ u	u	2	-10%
43: CC1CCN(S(=O)(=O)c2cc(F)ccc2CN2C(=O)c3cccnc3C2=O)CC1
→ -22%	0.5%	x	2%
44: N#CC1(NC(=O)CN2C(=O)NC3(CCCCCC3)C2=O)CCCCC1
→ 1%	0.1%	x	x
45: Nc1nnnn1CC(=O)N/N=C/c1cc([N+](=O)[O-])ccc1O
→ 6%	0.7%	-6	1%
46: CCOC(=O)C(CC)Sc1ncnc2c1nnn2-c1ccc(F)cc1 (stereo unspecified)
→ -5%	7.5%	-6	-9%
47: Cc1ccc(NS(=O)(=O)c2ccc(N3CCN(c4ccc(O)cc4)CC3)c([N+](=O)[O-])c2)c(C)c1
→ -5%	0.9%	-8	19%
48: COc1ccc(N(CC(=O)Nc2cccc(C(F)(F)F)c2)S(=O)(=O)c2c(C)[nH]c(=O)[nH]c2=O)cc1
→ -28%	-0.7%	x	-5%
49: Cc1csc(NC(=O)CSc2ccc(-c3ccccc3)nn2)n1
→ -17%	0.4%	6	-5%
50: CCCCn1c(N)c(N(CCOC)C(=O)C2CCN(S(=O)(=O)c3ccc(C)cc3C)CC2)c(=O)[nH]c1=O
→ -15%	u	x	x
51: COc1ccc(C2CC(c3ccccc3OC(=O)/C=C/c3ccccc3)=NN2C(C)=O)cc1 (stereo unspecified)
→ -21%	0.2%	-6	-23%
52: COc1cc(C(c2sc3nc(C)nn3c2O)N2CC(C)OC(C)C2)cc(OC)c1OC (stereo unspecified)
→ -12%	3.0%	8	-2%
53: O=C(O)c1ccc(-n2nnnc2SCc2ccccc2F)cc1
→ u	3.8%	0	-1%
54: CC(C)c1ccc(NC(=O)c2csnn2)cc1
→ 1%	4.0%	-5	-25%
55: COc1ccc(OC)c(NC(=O)NNC(=O)CCCOc2ccc(Cl)cc2C)c1
→ u	1.0%	-6	-3%
56: CCCCN1C(=O)CN(CCc2ccccc2)C(=O)C1c1ccc(OC)cc1 (stereo unspecified)
→ -8%	0.3%	2	0%
57: Cc1ccc(C(=O)N/C(=C\c2ccccc2)C(=O)NCc2ccncc2)cc1
→ 0%	-7.3%	u	5%
58: CC(=O)OCC(=O)[C@@]12OC(C)(C)O[C@@H]1C[C@H]1[C@@H]3C[C@H](F)C4=CC(=O)C=C[C@]4(C)[C@@]3(F)[C@@H](O)C[C@@]12C
→ -7%	6.9%	8	-29%
59: O=C(COc1ccccc1)N(Cc1ccco1)C1CCS(=O)(=O)C1 (stereo unspecified)
→ -14%	-3.0%	6	-8%
60: CCN(CC)c1ccc(/C=C2\C(=N)N3N=C(CC(=O)N4CCOCC4)SC3=NC2=O)cc1
→ u	u	x	1%

Quoted from above, compounds 1 to 12
Below each SMILES – Rango release inh	Rango-impB inh	GLA inh pH 4.5	miR-21 reporter
1: CN1c2ccsc2/C(=N/NC(=O)c2c(F)cccc2F)CS1(=O)=O
→ -5%	0.3%	0	-2%
2: Cc1cccc(C(=O)NCc2nnc3c4ccccc4c(-c4ccccc4)nn23)c1
→ 0%	-1.7%	4	-9%
3: Cc1scc(C(=O)NNC(=S)NCC(C)C)c1C
→ 7%	-3.7%	1	-38%
4: CC(C)(C)c1ccc(OC(=O)N2CCOCC2)cc1
→ u	0.2%	x	-42%
5: CC(CC(=O)NCc1ccco1)S(=O)(=O)c1ccc2c(c1)CCN2C(=O)C1CC1 (stereo unspecified)
→ -4%	-0.1%	x	18%
6: CCOC(=O)c1ccc(NC(=O)[C@@H](NC(N)=O)C(C)C)cc1
→ 29%	5.2%	3	-2%
7: O=C(COC(=O)c1ccc2ncsc2c1)Nc1ccc(OC(F)(F)F)cc1
→ -9%	u	x	x
8: COc1ccc(S(=O)(=O)NCCC(C)C)cc1C
→ 2%	-1.0%	0	-8%
9: O=C(COC(=O)c1ccccc1C(=O)c1ccccc1)c1ccco1
→ -6%	u	-1	-2%
10: Cc1cc2oc(C(=O)N(Cc3ccc(N(C)C)cc3)CC3CCCO3)c(C)c2cc1C (stereo unspecified)
→ -15%	0.0%	x	9%&26%
11: CCOC(=O)N1CCN(CC(=O)Nc2ccccc2C(=O)Nc2ccccc2)CC1
→ 13%	4.5%	x	x
12: CC(=O)c1cccc(-n2nnnc2SCC(=O)Nc2cc(C)on2)c1
→ 4%	-0.7%	x	-4%

Continuation:
Below each SMILES – Rango release inh	Rango-impB inh	GLA inh pH 4.5	miR-21 reporter
61: OC(COc1ccc2c(c1)CCC2)CN1CCN(c2cccc(Cl)c2)CC1 (stereo unspecified)
→ 14%	1.3%	0	-3%
62: CCCSc1cc(N2CCCC2)nc(-c2ccccc2)n1
→ -10%	3.0%	-15	-1%
63: COC(=O)c1cc(NC(=O)c2cc(-c3ccccc3Cl)oc2C(F)(F)F)ccc1N1CCOCC1
→ 23%	3.0%	-23	5%
64: COc1ccc(/C=C/c2nc3ccccc3n2Cc2ccccc2OC)cc1
→ 4%	-3.5%	-4	3%
65: O=C(Nc1ccc(Cl)cc1C(F)(F)F)c1ccccc1
→ 7%	-5.3%	5	-12%
66: CC(C)Cc1ccc(C(C)C(=N)N)cc1 (stereo unspecified)
→ -12%	-1.9%	-3	7%
67: COc1cc2c(C(=O)N3CCN(C)CC3)c(C)n(-c3ccccc3)c2cc1Br
→ 12%	1.4%	14	-10%
68: CC(=O)c1c(C(C)=O)c(C)n(-c2nc(-c3cccs3)c(C)s2)c1C
→ 3%	-0.6%	8	-2%
69: CCc1nn(-c2ccccc2)c(N)c1-c1ccc(OC)c(OC)c1
→ 2%	1.2%	6	-11%
70: O=C1C=C(c2ccccc2)OC(c2ccccc2)O1 (stereo unspecified)
→ 14%	1.7%	-1	-8%
71: O=C(CSc1nnc(CNC(=O)c2c(F)cccc2Cl)o1)Nc1ccc2c(c1)OCO2
→ 0%	2.9%	2	-2%
72: O=C(CSc1ccccn1)Nc1cccc(S(=O)(=O)N2CCCC2)c1
→ -16%	-2.8%	x	x
73: CC(C)c1nc(NCC2CCCO2)c(C#N)c2c1COC(C)(C)C2 (stereo unspecified)
→ -3%	3.9%	4	-18%
74: Cc1ccc(Nc2c(F)c(F)c(F)c(F)c2C(=O)O)c(C)c1
→ 6%	0.6%	4	4%
75: Cc1ccccc1OCCNC(=O)/C=C/c1ccccc1
→ -6%	4.2%	-7	-21%
76: COc1ccccc1C(=O)NCC(=O)NNC(=O)C1COc2ccccc2O1 (stereo unspecified)
→ 19%	0.6%	x	x
77: Cc1ccc(NC(=O)C2CC(c3ccc(F)cc3)=NO2)cc1 (stereo unspecified)
→ 4%	0.1%	-1	-5%
78: Cc1nc(C)c(C(=O)C2=C(O)C(=O)N(CCN3CCOCC3)C2c2cccs2)s1 (stereo unspecified)
→ u	u	-2	-10%
79: COc1ccc(S(=O)(=O)N2CCOCC2)cc1NC(=O)COC(=O)C1COc2ccccc2O1 (stereo unspecified)
→ -2%	0.5%	-11	-6%
